RE007 growth inh = less growth of the S. pombe RE007 Vpr strain | S. pombe RE007 Vpr strain, BacTiter-Glo ATP luminescence, 24 h; control for the full effect not named in the record | Potency, µM (doses to about 92.2 µM), for inactives: at the highest dose activity change, negative = less growth | hit rate 0.21% among 360,000 | AID 651644; active = well fitted falling curve with a large enough effect; inconclusive = small, poorly fitted or top-dose-only effect; inactive = no such curve, though single readings can be large or run the other way;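 note: nearly all actives have a fitted effect of over 50% in size; the assay follows cell death caused by Vpr and the record does not say whether a fall means rescue or toxicity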
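Fission yeast RE007 carrying one integrated HIV-1 vpr copy, seeded at OD 0.01 in PMG+AL medium with 23 nL pinned compound. Grown 24 h at 30 degrees; viability read by BacTiter-Glo luminescence after 5 min.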
StopGo reporter = lowers the luciferase signal of an FMDV 2A StopGo reporter; Potency, µM (titrated, usually from 57.9 µM), for inactives: at the top dose signal change, negative = less light; human cells with a luciferase reporter of 2A StopGo recoding; control for the full effect not named in the record; hit rate 1.2% among 410,000; active = well fitted falling curve with a large enough effect; inconclusive = small, poorly fitted or top-dose-only effect; inactive = no such curve, though single readings can be large or run the other way; tested in HEK293T cells; note: nearly all actives have a fitted effect of over 45% in size; luciferase light after 4 h
* hit, by the source's call; ? = inconclusive; [ ] = dose if it differs, or a comment. % is set by controls: 0 for no effect and ±100 for the full control effect; potency is the fitted concentration of half-maximal effect. Some of the compounds tested; count on the stated rates, not on these rows.

Fields – RE007 growth inh	StopGo reporter
CC1(C)CC2(OC2c2ccccc2[N+](=O)[O-])C(=O)c2ccccc21 (stereo not drawn)
  -8%	-28%
O=C(Nc1ccccc1)OC[C@@H]1C=CS(=O)(=O)N1Cc1ccc(Br)cc1
  5%	-8%
CN1CCN(C(=O)c2ccc(-c3cnc4cccnn34)cc2)CC1
  -7%	-2%
CCCc1ccc2c(C(F)(F)F)cc(C(F)(F)F)cc2n1
  2%	-17%
COC(=O)[C@@]1(Sc2ccc(C)cc2)CC(=O)N(c2ccc3c(ccn3C)c2)[C@@H]1c1ccccc1
  2%	-11%
CSCCNC(=O)C1(C)CCN1C(=O)c1cc(C)n(C)n1 (stereo not drawn)
  -7%[18.4 µM]	-9%
COCCCN1C(=O)C(CC(=O)NCCCCc2ccccc2)CC(C(=O)N2CCOCC2)=C1C (stereo not drawn)
  -8%	0%
Cc1ccc(C(O)c2ncc(-c3cccc(C(F)(F)F)c3)[nH]2)cc1F (stereo not drawn)
  4%	13%
CC1(C)OC(=O)C2=C(CC(c3ccccc3)OC2CCc2ccccc2)O1 (stereo not drawn)
  -11%	-13%
C[C@@H]1C(=O)O[C@H]2[C@H](O)[C@]34[C@@H]5OC(=O)[C@]3(OC3OC(=O)[C@H](O)C34[C@H](C(C)(C)C)[C@@H]5O)[C@@]12O (stereo partly drawn)
  6%	-6%
CC1=C(C(=O)N(C)C)CC(CC(=O)NCCCCc2ccccc2)C(=O)N1Cc1ccc(F)cc1 (stereo not drawn)
  -22%	-29%
COc1cccc(-c2cnc3c(NC(C)=O)cc(-c4cccc(C(=O)NCCN(C)C)c4)cn23)c1
  -15%[18.4 µM]	5%
CC(C)CCN1C(=O)c2ccccc2C1c1nnnn1Cc1ccccc1 (stereo not drawn)
  -7%	6%
COc1ccc(-c2nc3cc(C)c(Br)c(C)n3c2Cc2ccsc2)cc1OC
  7%	-10%
Cc1ccc(C(=O)NCc2ccc3c(c2)OCO3)c(Cl)c1
  0%	51%[activator]
O=C1NC[C@H](CCCCN2C[C@H](Cc3ccc(O)cc3)N(CCc3ccccc3)C(=O)C2=O)N(Cc2ccccc2)C1=O
  -11%	0%
COC(=O)[C@]12CCCCC=C1N(CCC1=CCCCC1)C(=O)[C@H](CC(=O)N1CCSCC1)C2
  -15%	-17%
Cc1ccc(OCCN2CCC2(C)C(=O)NCc2ccc(C(F)(F)F)cc2)cc1 (stereo not drawn)
  -7%	-20%
O=C(NC1CC1)C1=C[C@@H](C2CC2)C[C@@H](OCCCCO)O1
  99%	-7%
CCN1C[C@@H]2[C@@H]3C(=O)N(C)C(=O)[C@@H]3[C@](Cc3ccccc3)(C1=O)N2C(=O)c1ccc(Br)cc1
  -2%	-25%
C[C@H](CO)N1C[C@H](C)[C@H](CN(C)C(=O)Nc2ccccc2)OCc2cnnn2CCCC1=O
  -17%	-2%
Cc1cccc(S(=O)(=O)N(C)C[C@H]2OCc3cnnn3CCCC(=O)N([C@H](C)CO)C[C@H]2C)c1
  -15%	7%
CCCNC(=O)c1onc(CSc2ccc(Cl)cc2)c1C(=O)NCCOC
  -5%	-13%
CC(C)(C)c1ccc(CC(=O)N2CCC2(C)C(=O)NCc2ccc(Cl)cc2)cc1 (stereo not drawn)
  5%[18.4 µM]	-22%
FC(F)C(F)(F)Oc1cccc(Nc2nccn3c(-c4cc(C(F)(F)F)cc(C(F)(F)F)c4)cnc23)c1
  4%	-16%
COc1ccc(-n2nnnc2C(c2cccc3ccccc23)N2CCC3(CC2)C(=O)NCN3c2ccccc2)cc1 (stereo not drawn)
  -7%	-13%
COc1ccccc1N(C)S(=O)(=O)c1ccc(C(=O)NCCCN2CCCC2=O)cc1
  0%	-1%
Cc1ccc(C(O)c2ncc(-c3ccccc3F)[nH]2)cc1F (stereo not drawn)
  -27%	63%[activator]
O=C(CSc1ncccn1)NC(=O)NC1CCCC1
  4%	-8%
COC12c3ccccc3-c3ccccc3C1C(C(=O)O)C2C(=O)O (stereo not drawn)
  8%[18.4 µM]	-22%
Cc1ccc(NCC(=O)Nc2ccc(F)c(Cl)c2)cc1S(=O)(=O)N1CCOCC1
  -3%	?
CC(=O)Nc1cncc(-c2cccc(S(C)(=O)=O)c2)n1
  10%	-14%
C[C@]12CC[C@@H]3c4ccc(O)cc4CC[C@H]3[C@@H]1CC[C@@H]2OC(=O)CCC1CCCC1
  5%[18.4 µM]	-20%
Cn1c(=O)c2cc(NC(=O)NCCc3cccs3)ccc2n1Cc1ccccc1
  -2%[18.4 µM]	14%
OCC1OC(c2ccc(OCc3ccccc3)cc2OCc2ccccc2)C(O)C1O (stereo not drawn)
  -5%	?
CCOC(=O)C1=C(C)N(CCCC(=O)O)C(=O)NC1c1cccc(OC)c1 (stereo not drawn)
  -8%	-8%
CC1CCN(C(=O)CCC(=O)Nc2ccc([N+](=O)[O-])cc2)CC1
  5%	-6%
COc1ccc(NC(=O)C2(C)Cc3c(-c4ccc(C(N)=O)cc4)ccnc3O2)cc1 (stereo not drawn)
  1%[18.4 µM]	-6%
COCc1cccc(-c2csc(C(O)c3ccc(F)cc3)n2)c1 (stereo not drawn)
  -4%	13%
O=C(C1CCCCC1)N1C[C@@H](O)[C@H](n2cc(C3CC3)nn2)C[C@@H]1c1ccccc1
  9%	-27%
CC(=O)N1CCN(S(=O)(=O)c2cccc(C(=O)N3CCN(S(=O)(=O)c4c(C)c(C)cc(C)c4C)CC3)c2)CC1
  -17%	?
CN(C)C(=O)c1cccc(-c2cccc(-c3nc(C(=O)NCc4ccccc4)cc4c3[C@@H](CCO)N(S(=O)C(C)(C)C)C4)c2)c1 (stereo partly drawn)
  11%	-16%
N#Cc1ccc(C(=O)N2CCCCC2c2cc(C(=O)Nc3ccc4c(c3)OCO4)no2)cc1 (stereo not drawn)
  10%	-13%
CCCS(=O)(=O)NC(=O)C1(C)CCN(C(=O)CSc2ccccc2)C1 (stereo not drawn)
  1%	-13%
Cc1cccc(NC(=O)CNC(=O)c2ccc(S(=O)(=O)NCc3ccco3)cc2)c1C
  9%	-2%

2 of the compounds above, with each value named:
O=C(C1CCCCC1)N1C[C@@H](O)[C@H](n2cc(C3CC3)nn2)C[C@@H]1c1ccccc1
  RE007 growth inh = 9%
  StopGo reporter = -27%
CC(=O)N1CCN(S(=O)(=O)c2cccc(C(=O)N3CCN(S(=O)(=O)c4c(C)c(C)cc(C)c4C)CC3)c2)CC1
  RE007 growth inh = -17%
  StopGo reporter = ?

Continuation.
Fields – RE007 growth inh	StopGo reporter
c1ccc2c(c1)ccn1c(Cc3ccsc3)c(C3CCCCC3)nc21
  ?	-6%
C[C@H]1CN([C@@H](C)CO)C(=O)CCCn2nncc2CO[C@H]1CN(C)C(=O)NC1CCCCC1
  -6%	-16%
Cc1cccc(C)c1-n1nnnc1C(c1cccc2ccccc12)N1CCC2(CC1)C(=O)NCN2c1ccccc1 (stereo not drawn)
  -9%	-15%
Cc1ccc(OCC(=O)Nc2ccc(C(=O)Nc3ccccc3C(=O)O)cc2)cc1C
  1%	11%
COc1cc(F)ccc1-c1cc(C(=O)NCc2ccc(C(F)(F)F)cc2)[nH]n1
  0%	-15%
Cc1c(NC(=O)Nc2cc(F)c(F)cc2Cl)c(=O)n(-c2ccccc2)n1C
  8%	16%
CCOC(=O)C(N=Nc1nn[nH]n1)C(C)=O (stereo not drawn)
  -20%	36%[activator]
CC(C)CNc1ncnc2c1ncn2[C@H]1CN(Cc2ccncc2)C[C@@H](CO)O1
  7%[18.4 µM]	-13%
C[C@H](CO)N1C[C@H](C)[C@@H](CN(C)S(=O)(=O)c2ccc(F)cc2)OCc2cn(nn2)CCCC1=O
  -6%	-23%
COC(=O)[C@]12CCCCC=C1N(Cc1ccccc1)C(=O)[C@H](CC(=O)NCCC(C)C)C2
  6%	16%
CCCNC(=O)C1(C)CCN1C(=O)c1ccccc1CCc1ccccc1 (stereo not drawn)
  1%	0%
COc1ccc(S(=O)(=O)N2CCC3CC2c2c(-c4ccc(C(F)(F)F)cc4)cccc23)cc1 (stereo not drawn)
  9%	-3%
CCN(CC(=O)Nc1ccc(NC(C)=O)cc1)C(=O)c1c(C)nn(Cc2ccc(C)cc2)c1Cl
  -3%	-20%
CCC(=O)N(C)C[C@H]1Oc2cc(-c3cccnc3)ccc2S(=O)(=O)N([C@H](C)CO)C[C@H]1C
  -9%	22%
CCc1nnc(NC(=O)Cc2ccc(OC)c(S(=O)(=O)N3CCOCC3)c2)s1
  14%	-8%
COc1ccc(CN(C)CCCn2cnc3c(OC)ncnc32)cc1OC
  1%	-23%
COCCNC(=O)c1cc(S(=O)(=O)N2CCC3(CC2)OCCO3)ccc1F
  11%	-16%
C[C@H](CO)N1C[C@H](C)[C@H](CN(C)C(=O)c2ccccc2)Oc2cc(Br)ccc2S1(=O)=O
  5%	1%
COc1ccc(CNC(=O)COC(=O)CN2C(=O)C3CCCCC3C2=O)cc1 (stereo not drawn)
  -1%	-9%
CC[C@@H]1Cc2[nH][nH]c(=O)c2[C@H](CC(C)C)O1
  2%	-21%
Cn1c2ccccc2c2nnc(N/N=C/c3ccc(O)cc3)nc21
  -2%	-23%
O=C(NC1CCCC1)C(C1CC1)n1c(-c2ccnc3ccccc23)nc2ccccc21 (stereo not drawn)
  8%	-15%
O=C(NCc1cccc(C(F)(F)F)c1)c1ccc2nc([C@H]3C[C@H](O)[C@@H](CO)O3)[nH]c2c1
  12%	-5%
CCC(C)N(C(=O)COc1ccc(Cl)c2cccnc12)C1CCS(=O)(=O)C1 (stereo not drawn)
  9%	2%
CCCCOCCCNC(=O)C[C@@H]1C[C@@]2(C(=O)OCC)CCC=C2N(Cc2ccc(Cl)cc2Cl)C1=O
  8%	-29%
CC(O)(c1ccc(F)c(F)c1)c1nc(-c2ccncc2)cs1 (stereo not drawn)
  6%[18.4 µM]	0%
Cc1nc2c(OCc3ccc(Cl)cc3Cl)cccn2c1N(C)CC1CC1
  -25%	?
CCOC(=O)[C@]12CCC=C1N(Cc1ccccc1)C(=O)[C@H](CC(=O)NCCCCc1ccccc1)C2
  -14%	-19%
COc1ccc(N(CC(=O)N2CCN(c3ccccc3)CC2)S(=O)(=O)c2ccccc2)cc1
  2%	-5%
O=[N+]([O-])c1ccc(-c2cn3ccccc3n2)cc1
  -19%	10%

An excerpt from above in order of count of non-hydrogen atoms, rising:
Fields – RE007 growth inh	StopGo reporter
CC(O)(c1ccc(F)c(F)c1)c1nc(-c2ccncc2)cs1 (stereo not drawn)
  6%[18.4 µM]	0%
COc1ccc(CNC(=O)COC(=O)CN2C(=O)C3CCCCC3C2=O)cc1 (stereo not drawn)
  -1%	-9%
O=C(NC1CCCC1)C(C1CC1)n1c(-c2ccnc3ccccc23)nc2ccccc21 (stereo not drawn)
  8%	-15%

Carrying on.
Fields – RE007 growth inh	StopGo reporter
O=C1CSc2ccc(C(=O)N3CCCCC3)cc2N1
  -5%	-16%
CSCCC(C(=O)Nc1c(C)cccc1C)N1CCN(c2ccc(F)cc2)CC1 (stereo not drawn)
  -3%	-18%
C[C@H]1CN([C@@H](C)CO)C(=O)c2cc(Br)cnc2O[C@@H]1CN(C)S(=O)(=O)c1ccccc1
  3%	0%
O=C(NCc1ccc(F)cc1)C(=O)NCC1OCCN1S(=O)(=O)c1cc(F)ccc1F (stereo not drawn)
  8%	-22%
CCCCNC(=O)C[C@@H]1C[C@@]2(C(=O)OCC)CCCC=C2N(Cc2ccco2)C1=O
  4%	3%
CC1(C(=O)NCc2ccccc2)Cc2c(-c3ccccc3)ccnc2O1 (stereo not drawn)
  6%[18.4 µM]	-9%
O=C(Nc1nnc([C@@H]2C[C@H](O)[C@@H](CO)O2)s1)c1cccc(Cl)c1
  11%[18.4 µM]	36%[activator]
CC(=O)Nc1cc(-c2ccc(C(=O)N3CCOCC3)cc2)cn2c(-c3ccc(S(C)(=O)=O)cc3)cnc12
  8%[18.4 µM]	-6%
OCCNc1ncnc2c1ncn2[C@H]1CN(C2CCCC2)C[C@@H](CO)O1
  3%[18.4 µM]	-20%
COC(=O)[C@@]12C[C@@H](CC(=O)NCc3cccc4ccccc34)C(=O)N(Cc3ccco3)C1=CCC(C)(C)C2
  -13%	-23%
CCCCN1CC(C)(C)[C@H](CC(=O)Nc2ccccc2)C1=O
  -1%	-3%
Cc1ccc(C)c(C(O)c2ncc(-c3cccc(C(F)(F)F)c3)[nH]2)c1 (stereo not drawn)
  3%	1%
CCc1ccc(C(O)c2ncc(-c3cccc(C(F)(F)F)c3)[nH]2)cc1 (stereo not drawn)
  -5%[18.4 µM]	-9%
CCC(c1nnnn1Cc1ccccc1)N1CCC(n2c(=O)[nH]c3ccccc32)CC1 (stereo not drawn)
  7%	?
COc1ccc(S(=O)(=O)N2CCC[C@H]2C(=O)N2CCC[C@H]2C(=O)N[C@H](C)c2ccccc2)cc1C
  0%	-23%
COc1cccc(NC(=O)N(C)C[C@@H]2Oc3ncc(Br)cc3C(=O)N([C@@H](C)CO)C[C@H]2C)c1
  -11%	0%
CCCNC(=O)c1cc(C2CCCN(C(=O)c3ccc4ccccc4c3)C2)on1 (stereo not drawn)
  -18%	-17%
CC(C)Oc1cc(F)ccc1-c1cc(C(=O)Nc2cccc(C(F)(F)F)c2)[nH]n1
  -13%	?
c1cc(-c2ccsc2)n2cnnc2c1
  1%	-18%
CNC(=O)C[C@H]1C(=O)N(c2ccc(Br)cc2)C[C@@H]1CSC
  19%	-23%

From PubChem
